GIV Gai3 FP = inhibitors of GIV peptide binding to Galpha-i3, primary screen, biochemical, fluorescence polarization, FITC-GIV GBA peptide, rat Galphai3 | 210,000 compounds, 0.42% hits | percent of control (FP), % (test concentration not listed) | 90 min; active compounds read low; scaled: aluminum fluoride 0%, vehicle 100%;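 active means replicate mean at 85% of control or lower, very high polarization wells dropped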;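 further: lower values mean more displacement of the GIV peptide from Galpha-i3; wells of about 15 µL received 100 nL stock; the first replicate is given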
Target sequence (P08753 whole entry, looked up): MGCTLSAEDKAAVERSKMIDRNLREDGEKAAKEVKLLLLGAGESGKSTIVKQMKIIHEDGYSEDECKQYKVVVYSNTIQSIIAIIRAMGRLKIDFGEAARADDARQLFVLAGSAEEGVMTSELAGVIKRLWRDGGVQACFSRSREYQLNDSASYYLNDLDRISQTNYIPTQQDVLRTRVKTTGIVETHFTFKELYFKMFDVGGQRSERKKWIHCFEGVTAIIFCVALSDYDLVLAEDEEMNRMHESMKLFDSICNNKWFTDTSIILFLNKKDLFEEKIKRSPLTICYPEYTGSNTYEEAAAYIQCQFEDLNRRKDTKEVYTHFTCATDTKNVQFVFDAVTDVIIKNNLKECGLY
HCMV UL50-53 inh = inhibitors of HCMV UL50-UL53 interaction, biochemical, HTRF; normalized percent inhibition; 190,000 compounds, 0.15% hits; inhibition, % (test concentration not listed);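 active means both replicates at 50% or more, plus weaker picks with an unusually low signal ratio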;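 further: stock transfer was 100 nL into about 20 µL; 0% = negative control wells and 100% = wells with untagged competitor protein; inactives centre near -12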
Sa growth 42C = S. aureus growth inhibition at 42 and 30 °C, primary screen, LtaS inhibitor project, RN4220, two temperatures; OD600, 20 h, 42 °C; active compounds read low; relative growth, % (test concentration not listed); 170,000 compounds, 0.53% hits;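 active means growth at 42 °C up to 50% and 20 or more points under that at 30 °C, or under 10% at both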;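 further: 300 nL library stock went into each well; scaled to the means of positive and negative controls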
Sa growth 42C second temp = further read-out of Sa growth 42C, marked with its call; relative growth, %; measured here: growth at 30 °C;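 optical density after 20 h as mean of two plates; 100% = untreated growth and lower means inhibition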
Active calls of the source: *; . = no result given.

SMILES | GIV Gai3 FP | HCMV UL50-53 inh | Sa growth 42C | Sa growth 42C second temp
COCc1[nH]nc(N)c1-c1ccccc1 | 108 | 9 | 119 | 102
Cc1ccc2nc3c(cc(C(=O)NCC4CCCO4)c(=N)n3C(C)C)c(=O)n2c1 (stereo not drawn) | 105 | -119 | 100 | 94
Cc1ccccc1NC(=S)Nc1ccc(C#N)cc1 | . | -10 | 52 | 34
CN(C)S(=O)(=O)c1ccc2oc3n[nH]c(=S)n3c2c1 | . | -13 | 69 | 87
O=C1CN(C(=O)Cn2nnc(-c3cccc(C(F)(F)F)c3)n2)c2ccccc2N1 | . | -33 | 85 | 88
COCCn1c(C)cc(/C=C(\C#N)c2ccc(C)cc2)c1C | 111 | -28 | 97 | 92
CC(C)C(NS(=O)(=O)c1cccs1)C(=O)NCc1ccccc1Cl (stereo not drawn) | 104 | 0 | 98 | 82
O=C1CCc2cc(S(=O)(=O)N3CCc4ccccc43)cc3c2N1CC3 | 98 | -13 | 93 | 82
CNc1ccccc1C(C)(C)c1cc(-c2ccccc2)no1 | . | 18 | 95 | 101
COc1ccc(OC)c(CNc2ccc3c(c2)nc(C)n3C)c1 | . | -2 | 94 | 80
Cc1nn(-c2ccccc2)c2nc(-c3ccc4c(c3)OCO4)cc(-c3nnc4n3CCCCC4)c12 | . | -43 | 97 | 89
CCc1ccc(S(=O)(=O)c2cn(C)c3cc(N4CCN(CC)CC4)c(F)cc3c2=O)cc1 | 106 | . | 93 | 97
Cc1cccc(NC(=O)C(C)N2CCN(c3ccccc3O)CC2)c1 (stereo not drawn) | . | 0 | 111 | 102
CC(C)NC(=O)Cc1ccc(-n2c(=O)c3ccccc3n(CC(=O)Nc3ccc(F)cc3)c2=O)cc1 | 103 | -23 | . | .
Cc1ccc(-c2nn3c(-c4ccc(C)cc4)nnc3c3ccccc23)cc1 | 102 | -20 | 84 | 90
O=C(O)c1ccc(C=Nc2ccc(C(=O)O)cc2)cc1 | 102 | -8 | 97 | 87
CCOC(=O)C1CCN(c2nc3ccccc3n3c(=O)n(CC(=O)NC(C)(C)C)nc23)CC1 | 106 | -20 | . | .
CCC(=O)N1CCc2cc(S(=O)(=O)NC(CC(C)C)C(=O)Nc3cccc(C)c3C)ccc21 (stereo not drawn) | 103 | -7 | 106 | 90
CN(C)CC(O)Cn1c2ccccc2c2ccccc21 (stereo not drawn) | . | -20 | 116 | 75
O=C(COc1ccccc1)NCC(c1ccc(Cl)cc1)N1CCCCC1 (stereo not drawn) | 105 | 2 | 117 | 89
CC1CN(S(=O)(=O)c2cccc(C(=O)Nc3ccccc3)c2)CC(C)O1 (stereo not drawn) | 104 | -34 | 99 | 104
O=c1cc(-c2ccccc2F)[nH]c2cc3c(cc12)OCO3 | 99 | -25 | . | .
CC1(C)CC(=O)C(=CN2CCOCC2)C(=O)C1 | 102 | . | 105 | 106
COc1ccc(-n2cc(-c3ccccc3)c3c(NC4CCCC4)ncnc32)cc1 | 100 | . | 106 | 82
CN1CCCN(c2ccc(NS(=O)(=O)c3ccc(Br)cc3)c(C(=O)O)c2)CC1 | 98 | -36 | . | .
CN(Cc1ccccc1)C(=O)CNC(=O)Cn1ccc2ccccc2c1=O | 103 | . | 90 | 79
O=C1CSC2(C(=O)N(Cc3ccccc3F)c3ccccc32)N1c1cccc(C(F)(F)F)c1 (stereo not drawn) | 103 | . | 94 | 76
COc1ccccc1-c1nc2c3c4c(sc3ncn2n1)CCCC4 | 93 | -13 | . | .
CC(NS(=O)(=O)c1ccccc1)C(=O)O (stereo not drawn) | . | -11 | 93 | 86
O=C(Cn1ncc2c3ccccc3n(Cc3ccccc3)c2c1=O)NC1CCCCCC1 | 107 | -2 | 79 | 83
CN(C(=O)CCNC(=O)Cn1cnc2ccccc2c1=O)c1ccccc1F | 102 | -61 | 93 | 88
CCCC(=O)C1=C(O)C(C(=O)OC)C(C)(C)CC1=N (stereo not drawn) | 107 | -8 | 93 | 92
O=C(O)/C=C/C(=O)c1ccc(C2CCCCC2)cc1 | 103 | 4 | -0.9* | -0.3*
COc1ccc(C(NC(=O)C2CC(=O)N(Cc3ccco3)C2)c2ccccc2)cc1 (stereo not drawn) | . | -6 | 72 | 85
CCOc1ccc2nc(N3CCC(C(=O)NC4CC4)CC3)sc2c1 | 108 | 1 | 98 | 80
CC1CCCCC1NC(=O)CN1CCC(NC(=O)Nc2ccccc2)CC1 (stereo not drawn) | 97 | 3 | 110 | 84

Part of the list above in order of molar mass, lowest first.
SMILES | GIV Gai3 FP | HCMV UL50-53 inh | Sa growth 42C | Sa growth 42C second temp
CC(NS(=O)(=O)c1ccccc1)C(=O)O (stereo not drawn) | . | -11 | 93 | 86
CC1(C)CC(=O)C(=CN2CCOCC2)C(=O)C1 | 102 | . | 105 | 106
O=C(O)/C=C/C(=O)c1ccc(C2CCCCC2)cc1 | 103 | 4 | -0.9* | -0.3*
CCCC(=O)C1=C(O)C(C(=O)OC)C(C)(C)CC1=N (stereo not drawn) | 107 | -8 | 93 | 92
CN(C)CC(O)Cn1c2ccccc2c2ccccc21 (stereo not drawn) | . | -20 | 116 | 75
O=c1cc(-c2ccccc2F)[nH]c2cc3c(cc12)OCO3 | 99 | -25 | . | .
COc1ccccc1-c1nc2c3c4c(sc3ncn2n1)CCCC4 | 93 | -13 | . | .
Cc1cccc(NC(=O)C(C)N2CCN(c3ccccc3O)CC2)c1 (stereo not drawn) | . | 0 | 111 | 102
CCOc1ccc2nc(N3CCC(C(=O)NC4CC4)CC3)sc2c1 | 108 | 1 | 98 | 80
Cc1ccc(-c2nn3c(-c4ccc(C)cc4)nnc3c3ccccc23)cc1 | 102 | -20 | 84 | 90
CN(Cc1ccccc1)C(=O)CNC(=O)Cn1ccc2ccccc2c1=O | 103 | . | 90 | 79
O=C(COc1ccccc1)NCC(c1ccc(Cl)cc1)N1CCCCC1 (stereo not drawn) | 105 | 2 | 117 | 89
CC1CN(S(=O)(=O)c2cccc(C(=O)Nc3ccccc3)c2)CC(C)O1 (stereo not drawn) | 104 | -34 | 99 | 104
CN(C(=O)CCNC(=O)Cn1cnc2ccccc2c1=O)c1ccccc1F | 102 | -61 | 93 | 88
COc1ccc(-n2cc(-c3ccccc3)c3c(NC4CCCC4)ncnc32)cc1 | 100 | . | 106 | 82
COc1ccc(C(NC(=O)C2CC(=O)N(Cc3ccco3)C2)c2ccccc2)cc1 (stereo not drawn) | . | -6 | 72 | 85
O=C(Cn1ncc2c3ccccc3n(Cc3ccccc3)c2c1=O)NC1CCCCCC1 | 107 | -2 | 79 | 83
CCOC(=O)C1CCN(c2nc3ccccc3n3c(=O)n(CC(=O)NC(C)(C)C)nc23)CC1 | 106 | -20 | . | .
CN1CCCN(c2ccc(NS(=O)(=O)c3ccc(Br)cc3)c(C(=O)O)c2)CC1 | 98 | -36 | . | .
CCC(=O)N1CCc2cc(S(=O)(=O)NC(CC(C)C)C(=O)Nc3cccc(C)c3C)ccc21 (stereo not drawn) | 103 | -7 | 106 | 90
CC(C)NC(=O)Cc1ccc(-n2c(=O)c3ccccc3n(CC(=O)Nc3ccc(F)cc3)c2=O)cc1 | 103 | -23 | . | .

Other results.
SMILES | GIV Gai3 FP | HCMV UL50-53 inh | Sa growth 42C | Sa growth 42C second temp
CN(C)c1ccc(/C=N/N=C2/C(=N/O)CCc3nonc32)cc1 | 104 | -45 | 112 | 75
Cc1cc(C(=O)CSc2nnc3sc4ccccc4n23)c(C)n1-c1ccc(Cl)cc1 | 103 | -13 | . | .
O=C(NC1CCCCC1)N1CCN(Cc2ccccc2)CC1 | 101 | -2 | 96 | 93
O=C(O)C1C2C=CC(C3CC23)C1C(=O)N1CCc2ccccc21 (stereo not drawn) | 105 | -31 | 107 | 95
CC(=O)Nc1nc(-c2ccccc2)cc(-c2ccco2)c1C#N | 102 | -12 | 93 | 85
O=C(COc1ccc(Cl)cc1)NCCc1ccccc1 | 101 | . | 95 | 81
CCN1C(=O)NC(c2cccnc2)C(C(=O)OC)=C1C (stereo not drawn) | 102 | -25 | 85 | 81
CC1Cc2ccccc2N1C(=O)/C=C/c1cccc(Br)c1 (stereo not drawn) | . | -25 | 104 | 77
CCN1CCN(CC(O)COCCC23CC4CC(CC(C4)C2)C3)CC1 (stereo not drawn) | . | 10 | 116 | 100
Fc1cccc(CSc2nc3ccccc3c3nc4ccccc4n23)c1 | 107 | . | 96 | 92
CC(Sc1nnc(-c2cccs2)n1C1CC1)C(=O)c1ccc(F)c(F)c1 (stereo not drawn) | . | -28 | 104 | 81
OCCSc1nc2ccccc2n1CCOc1ccccc1 | 99 | -37 | 84 | 83
COc1cc2c(cc1OC)CN(S(=O)(=O)c1ccc3c(c1)CCC(C)(C)O3)CC2 | 104 | -21 | 92 | 85
Cc1ccc(/C=C2\CC/C(=C\c3ccc(C)o3)C2=O)o1 | -75* | . | 77 | 42
CCc1ccc(NC(=O)N2CC(CC)Sc3ccccc32)cc1 (stereo not drawn) | 98 | . | 88 | 92
CCc1cc2c(-c3ccccc3)cc(=O)oc2c2c1OCN(Cc1ccc(F)cc1)C2 | 103 | -28 | 89 | 92
CC(C)(C)c1nc2scc(-c3ccccc3)c2c(=O)o1 | 100 | . | 126 | 86
Cc1cc(C)nc(NC(=O)Nc2ccc(Cl)cc2)n1 | 104 | -10 | . | .
CCOc1ccccc1NC(=O)Nc1cc(C(=O)O)ccc1C | 96 | -20 | 108 | 106
COc1ccc(Cl)cc1NC(=O)c1c(NCc2cccs2)sc2c1CCCC2 | 133 | . | 97 | 92
Cn1c(=O)c2cc(C(=O)O)sc2c2ccccc21 | 101 | -19 | 99 | 96
CCN1CCN(c2ncc3c(n2)CCN(Cc2cc(Br)cs2)C3)CC1 | 113 | . | 111 | 100
C=CCn1c(=N)c(C(N)=O)cc2c(=O)n3ccccc3nc21 | 92 | -48 | 94 | 114
CC1CCN(Cn2cnn(CN3CCC(C)CC3)c2=S)CC1 | 107 | 6 | 76 | 84
O=C(CCS(=O)(=O)c1cc2c(cc1Br)CCN2C(=O)C1CC1)N1CCN(c2ccccn2)CC1 | 98 | -24 | . | .
Cc1cc(Nc2ccc3c(c2)OCCO3)n2ncnc2n1 | 108 | 0 | 110 | 83
Cc1ccc(Cl)cc1NC(=O)NC1COc2ccccc2C1 (stereo not drawn) | 101 | . | 87 | 88
CCN(CC(=O)Nc1ccccc1OC)CC(=O)NC1CCCc2ccccc21 (stereo not drawn) | . | -12 | 91 | 96
COc1ccc(C2=NS(=O)(=O)N(C)C(C(=O)N(C)Cc3ccccc3)=C2)cc1 | 97 | . | 129 | 81
O=C(Nc1nnc(C(F)(F)F)s1)c1ccccc1 | 98 | 14 | 55 | 13
NCCC(c1ccccc1)c1ccco1 (stereo not drawn) | 105 | -13 | 97 | 49
CC1=C(CCN2CCN(c3ccccc3)CC2)C(C)(C)CCC1 | 109 | 1 | 103 | 102
COC(=O)c1cc(-c2ccccc2)no1 | 101 | -18 | 106 | 85
CCN(CCC#N)c1ccc(CNCC2CN(Cc3ccccc3)CCO2)c(C)c1 (stereo not drawn) | . | -2 | 107 | 88
O=C(NCc1ccccc1)C1CCN(S(=O)(=O)c2ccc3[nH]c(=O)ccc3c2)CC1 | 100 | . | 108 | 89
CCOc1cc(-c2ccc(C)cc2)nc2ccc(C(=O)N3CCN(c4ccccn4)CC3)cc12 | 95 | 10 | . | .
CC1CC(=O)C2=C(C1)Nc1ccccc1N(C(=O)COc1ccccc1)C2c1ccco1 (stereo not drawn) | 102 | -14 | 98 | 83
Cn1c2ccccc2c2cc(C(=O)O)sc21 | . | -20 | 88 | 79
CCN(C(=O)Cn1ncc2c(=O)oc3ccccc3c21)c1ccccc1F | 112 | 3 | 101 | 91
c1cc2c(cc1C13CC4CC(CC(C4)C1)C3)n1nnnc1c1nnnn21 | 111 | -20 | 95 | 81
Cc1c(C(=O)N2CCCC2)c(S(=O)(=O)Nc2ccc(S(N)(=O)=O)cc2)c(C)n1C | 99 | -26 | . | .
Cc1cc(C)cc(NC(=O)C2CCN(c3cc(C)nc4c(-c5ccc(Cl)cc5)c(C)nn34)CC2)c1 | 108 | -33 | 106 | 94
Cc1ccc(C=Nc2cccc(C#N)c2)s1 | 108 | 5 | 105 | 107
COc1cccc(-c2nc3n(c2C(N)=O)CCS3(=O)=O)c1 | 101 | -29 | . | .
O=C(CSc1ncc(S(=O)(=O)c2ccc(Cl)cc2)c(=O)[nH]1)Nc1ccc2c(c1)OCCO2 | 117 | -13 | 122 | 89
Cc1cc(C)cc(NC(=O)CN2C(=O)c3ccccc3Sc3ccc(C(=O)N4CCOCC4)cc32)c1 | 104 | . | 116 | 86
Cc1oc2c(CN(C)C)c(O)ccc2c(=O)c1-c1cscn1 | . | -28 | 80 | 90
CCCN(CC1CC1)Cn1c(=S)sc2ccccc21 | . | -9 | 59 | 59
CCCNS(=O)(=O)c1ccc(SC)cc1 | 113 | -10 | 98 | 101
Cc1cc2c3c([nH]c2cc1S(=O)(=O)NCCCN1CCOCC1)CC(C)(C)CC3=O | 100 | -28 | 109 | 79
Cn1c(=O)cc(OCC(=O)NCc2ccc(F)cc2Cl)c2ccccc21 | 110 | 1 | 91 | 99
CO/N=C1\CC(C)(C)Cc2c(-c3ccn(C(=O)c4cccs4)n3)sc(SC)c21 | 104 | 2 | 102 | 96

Assay outcomes: PubChem BioAssay, ICCB-Longwood Screening Facility, Harvard Medical School
